CBX7 AlphaScr = CBX7 chromodomain binding inhibitors, primary screen, biochemical, AlphaScreen; 66,000 tested, 1.1% active; AlphaScreen His6-CBX7 / biotin-H3K27me3 peptide binding; stronger effect = lower value; normalised signal (fraction of DMSO) (no concentration beside the values); AID 1224903, 2016; in the data active = normalised signal below about 0.5;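 note: 100 nL library stock added to about 20 µL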
Target sequence (O95931 whole entry, looked up): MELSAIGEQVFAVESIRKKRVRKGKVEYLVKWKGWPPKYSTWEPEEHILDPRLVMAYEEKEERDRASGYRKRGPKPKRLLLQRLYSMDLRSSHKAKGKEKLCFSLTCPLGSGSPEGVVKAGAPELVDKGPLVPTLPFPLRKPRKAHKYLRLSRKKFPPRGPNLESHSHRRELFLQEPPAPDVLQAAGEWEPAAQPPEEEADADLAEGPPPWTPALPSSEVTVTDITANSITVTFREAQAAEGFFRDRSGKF
CBX7 AlphaScr z-score = recorded beside CBX7 AlphaScr, whose call it bears; z-score; measured here: z-score of CBX7 signal; some inactives read as strong as hits; reference of the scale not given here;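 same signal on another scale; lower means less binding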
* marks the source's active call; other numbers are inactive results.

The line under a structure holds: CBX7 AlphaScr | CBX7 AlphaScr z-score
- Cc1ccc(C)c(CN2C(=O)c3ccccc3S(=O)(=O)c3ccc(C(=O)NCC4CCCO4)cc32)c1 (centres undefined)
    1.04 | 1.02
- CCc1nnc(NC(=O)c2c(OC)cccc2OC)s1
    1.03 | 1.12
- COc1ccccc1C(=O)Nc1c2c(nn1-c1ccc(Oc3ccccc3)cc1)CSC2
    0.906 | -2.33
- O=C(Nc1ccc(F)cc1Cl)C1c2ccccc2C(=O)N2CCc3ccccc3C12 (centres undefined)
    1 | 0.0374
- Cc1ccc(NC(=O)COc2ccc3oc4c(c3c2)CCCC4)c(C)c1
    0.994 | -0.0559
- Cc1ccc(CNC(=O)CSCc2nc(-c3cccs3)oc2C)cc1
    0.911 | -1.66
- Cc1nc(NC(N)=NS(=O)(=O)c2ccccc2)nc2ccccc12
    1.1 | 1.19
- COc1ccc(OC)c(-n2c(O)cnc2Nc2nc(C)cc(C)n2)c1
    0.844 | -1.06
- CC(C)Oc1ccc(C(=O)N(Cc2ccc(C(C)C)cc2)C2CCS(=O)(=O)C2)cc1 (centres undefined)
    0.903 | -0.868
- COC(=O)c1c(NC(=O)c2ccc(OC)c(OC)c2)sc2c1CCCC2
    1.14 | 2.01
- CCCCNC(=O)CN1C(=O)COc2ccccc21
    0.475* | -4.69*
- Cc1ccc(Cl)cc1NC(=O)C1CC(=O)N(C2CCCCC2)C1 (centres undefined)
    1.12 | 0.824
- Cn1c(=N)n(CC(O)COc2ccccc2)c2ccccc21 (centres undefined)
    1 | 0.154
- COc1ccc(NC(=O)CSc2nnc(CNC(=O)c3ccccc3F)o2)c(OC)c1
    1.04 | 1.09
- CCOC(=O)c1c(NC(=O)COc2ccc(Br)c(C)c2)sc2c1CCCC2
    1.09 | 1.46

Following part.
The line under a structure holds: CBX7 AlphaScr | CBX7 AlphaScr z-score
- CC(Oc1ccc(F)cc1)C(=O)Nc1c(C(=O)c2ccc(Br)cc2)oc2ccccc12 (centres undefined)
    1.45 | 1.59
- Fc1ccccc1Nc1nc2nonc2nc1N1CCCCCC1
    0.928 | -1.91
- CCOC(=O)CNS(=O)(=O)c1cc(-c2nnc(Nc3cccc(O)c3)c3ccccc23)ccc1C
    0.73 | -0.304
- CCN(C(=O)c1cnc(N2CCN(c3ncccn3)CC2)c2ccccc12)c1cccc(Cl)c1
    1.08 | 3.04
- CCOc1ccccc1CNC(=O)CCc1cn(C)c2ccccc12
    0.845 | -4.35
- Cc1noc(C)c1S(=O)(=O)NCCc1ccc(S(N)(=O)=O)cc1
    1.02 | 0.775
- CC(NC(=O)Cn1nc(-c2ccccc2)c2cc(Cl)ccc21)c1ccccc1 (centres undefined)
    1 | 0.11
- COC(=O)c1ccccc1NC(=O)c1cc(-c2ccc(F)cc2)on1
    1.05 | 1.35
- CCOCCCNC(=O)CN1N=C(c2ccccc2)CCC1=O
    1.07 | 1.03
- COc1ccccc1CNC(=O)CCCN1C(=O)COc2ccc(C)cc21
    0.937 | -1.44
- O=C(NCc1cccnc1)c1ccc2c(c1)N(Cc1ccc(F)cc1)C(=O)c1ccccc1S2(=O)=O
    1.13 | 2.33
- CCCCc1nc2ccccc2c(NC(=O)CN2CCN(C(=O)c3ccco3)CC2)c1CCC
    0.964 | -0.355
- O=C(CC1(O)C(=O)N(CCc2ccccc2)c2ccccc21)c1ccccn1 (centres undefined)
    0.812 | -1.79
- CC(CCc1ccccc1)NC(=O)C1CCN(C(=O)c2cc3sccc3n2C)CC1 (centres undefined)
    0.938 | -1.11
- COc1ccc2c(c1)-c1nc(NC(=O)c3ccccc3F)sc1CC2
    1.25 | 3.61

(cont.)
The line under a structure holds: CBX7 AlphaScr | CBX7 AlphaScr z-score
- COc1ccc(Nc2c(-c3ccc(Cl)cc3)nc3ncccn23)cc1OC
    0.939 | -0.258
- COc1ccc(NC(=O)CC2C(=O)N(c3ccc(F)cc3)C(=O)N2CCc2cccs2)cc1 (centres undefined)
    0.999 | -0.048
- O=C(Nc1ccc2oc(-c3ccccc3)nc2c1)c1cncc(Br)c1
    1.05 | 0.0618
- Cc1ccc(-c2cc(C(F)(F)F)n3nc(C(=O)Nc4cccc(C(F)(F)F)c4)cc3n2)cc1
    0.975 | -0.334
- COc1ccc(N2CCN(CCCNC(=O)C3CC(=O)N(C4CCCC4)C3)CC2)cc1 (centres undefined)
    0.862 | -6.48
- Cc1cccc(Nc2nnc(-c3ccc(OCC(=O)N4CCCCC4)cc3)c3ccccc23)c1
    0.981 | -0.207
- O=C(Nc1c(C(=O)Nc2cccc(F)c2)oc2ccccc12)c1cccc(F)c1
    1.04 | 0.47
- C=CCn1c(SCC(=O)Nc2ccc(OC)c(Cl)c2)nnc1-c1cccnc1
    1.12 | 1.17
- CC(C)c1ccc(NC(=O)C2CCCN(S(=O)(=O)c3cccc4cccnc34)C2)cc1 (centres undefined)
    0.948 | -1.78
- Cc1cc(OCC(O)CNC(C)(C)C)ccc1Cl (centres undefined)
    1.31 | 2.38
- CCCCNC(=O)c1cc(Nc2ccc(OC)cc2OC)nc2ccccc12
    0.753 | -3.78
- O=C(CN1C(=O)COc2ccc(S(=O)(=O)N3CCOCC3)cc21)NCc1ccccc1Cl
    0.975 | -0.711
- O=C1CCCc2c1cc(C(=O)N1CCOCC1)c(=O)n2-c1ccccc1
    1.06 | 1.56
- Cc1ccc(OCCCCc2c(C)n[nH]c2C)c(C(C)(C)C)c1
    0.415* | -20.8*
- FC(F)(F)c1ccc2nnc(-c3ccc(Cl)cc3)n2c1
    1.09 | 0.957

A second format for some results above:
mol	CBX7 AlphaScr	CBX7 AlphaScr z-score
Cc1ccc(Cl)cc1NC(=O)C1CC(=O)N(C2CCCCC2)C1 (centres undefined)	1.12	0.824
O=C(Nc1ccc(F)cc1Cl)C1c2ccccc2C(=O)N2CCc3ccccc3C12 (centres undefined)	1	0.0374
CC(NC(=O)Cn1nc(-c2ccccc2)c2cc(Cl)ccc21)c1ccccc1 (centres undefined)	1	0.11
O=C(Nc1c(C(=O)Nc2cccc(F)c2)oc2ccccc12)c1cccc(F)c1	1.04	0.47
Cc1ccc(C)c(CN2C(=O)c3ccccc3S(=O)(=O)c3ccc(C(=O)NCC4CCCO4)cc32)c1 (centres undefined)	1.04	1.02
COc1ccc(OC)c(-n2c(O)cnc2Nc2nc(C)cc(C)n2)c1	0.844	-1.06
Cc1cc(OCC(O)CNC(C)(C)C)ccc1Cl (centres undefined)	1.31	2.38

Next section
The line under a structure holds: CBX7 AlphaScr | CBX7 AlphaScr z-score
- CCn1c(C(=O)Nc2ccc(NC(C)=O)cc2)cc2sc(Cl)cc21
    1.02 | 0.607
- O=c1cc(Cc2nnc(SCc3ccccc3F)n2-c2ccc(F)cc2)[nH]c(=O)[nH]1
    1.02 | 0.435
- CCCCc1ccc(-c2nc(Nc3ccc(F)cc3F)c3ccccc3n2)cc1
    0.929 | -0.851
- COc1ccc(-c2nnc(NC(=O)c3ccc(S(=O)(=O)N4CC(C)CC(C)C4)cc3)o2)cc1 (centres undefined)
    0.915 | -1.92
- O=C(Cn1c(=O)n(CCc2c[nH]c3ccccc23)c(=O)c2cccnc21)Nc1ccccc1F
    0.794 | -6.74
- COc1ccccc1C(=O)NC(C)C(c1cccs1)N1CCOCC1 (centres undefined)
    1.02 | 0.367
- CCCCNC(=O)c1cccc(NC2=NC3CS(=O)(=O)CC3S2)c1 (centres undefined)
    1.01 | 0.335
- COc1cccc(-n2ccnc2SCC(=O)Nc2cc(Cl)ccc2OC)c1
    0.958 | -0.754
- O=C(Nc1ccc(OC(F)(F)F)cc1)c1cc(-c2ccc(F)cc2)on1
    1.01 | 0.329
- COCCn1c(=O)[nH]c2cc(C(=O)NCc3ccccc3OC)ccc2c1=O
    1.1 | 2.42
- O=C(NCc1cccnc1)C1CCN(C(=O)c2cc3sccc3n2Cc2ccc(F)cc2)CC1
    1.01 | 0.329
- O=C1CC(=O)Nc2cc(S(=O)(=O)Nc3ccc(Cl)cc3)ccc2N1
    1.05 | 2.2
- COc1ccccc1-c1c(C)nn2c(N3CCN(Cc4ccccc4)CC3)cc(C)nc12
    0.861 | -1.91
- O=C(Nc1ccc(Cl)cc1)Nc1ccc(Oc2ccccc2)cc1
    0.957 | -0.185
- COC(=O)c1cnn2c(C)c(Cc3ccc(F)cc3)c(C)nc12
    1.06 | 1.47

The list goes on:
The line under a structure holds: CBX7 AlphaScr | CBX7 AlphaScr z-score
- CCCCCNC(=O)c1cccc(NC2=NC3CS(=O)(=O)CC3S2)c1 (centres undefined)
    1.01 | 0.352
- COCCCNC(=O)CSc1nc(-c2ccc(C)cc2)[nH]c1-c1ccc(Cl)cc1
    0.855 | -2.37
- O=C(CCN1C(=O)COc2ccccc21)NC1CCCCCC1
    0.937 | -1.9
- Cc1ccc(N2C(=O)c3ccccc3C2Nc2ccccc2)nc1 (centres undefined)
    1.04 | 1.17
- Cc1ccc(CNC(=O)C2CCN(S(=O)(=O)c3cccs3)CC2)cc1
    0.974 | -0.59
- O=C(NCc1cccnc1)C1c2ccccc2C(=O)N1Cc1ccc(F)cc1Cl (centres undefined)
    1.03 | 0.825
- Cc1cc(=O)n2nc(N3CCCC(C(=O)N4CCN(c5ccccc5)CC4)C3)sc2n1 (centres undefined)
    1.24 | 2.27
- CCc1nc(SCC(=O)Nc2cc(C)on2)n[nH]1
    1.44 | 0.893
- CCOC(=O)c1cnc2ccc(C)cc2c1Nc1ccc(C)cc1
    1.06 | 0.644
- COc1ccc(NC(=O)c2cc(S(=O)(=O)N3CCCCC3)ccc2F)cc1
    0.977 | -0.178
- COc1ccc(N2C(=O)C(CC(=O)Nc3ccc(F)cc3)N(Cc3ccc(C)cc3)C2=O)cc1 (centres undefined)
    0.978 | -0.728
- CCCCOC(=O)Nc1ccc(S(=O)(=O)Nc2cc(C)nc(C)n2)cc1
    0.991 | -0.316
- Cc1[nH]c2c(C)cccc2c(=O)c1CCC(=O)O
    1.07 | 0.506
- Cc1ccc2c(c1)-c1c(cnn1CC(=O)Nc1cccnc1)CO2
    0.938 | -1.16
- COc1ccc(NS(=O)(=O)c2ccc3c(c2)CCN3C(=O)C2CCC2)c(OC)c1
    1.01 | 0.213

(cont.)
The line under a structure holds: CBX7 AlphaScr | CBX7 AlphaScr z-score
- O=C(Nc1ccccc1)Nc1nnc(Cc2ccc(Cl)cc2)s1
    0.998 | -0.0101
- Cc1cc(=O)n2nc(N3CCCC(C(=O)NCCCN4CC(C)CC(C)C4)C3)sc2n1 (centres undefined)
    1.24 | 1.82
- CCOC(=O)c1ccc(NC(=O)CN2N=C(c3ccc(OC)cc3)CCC2=O)cc1
    0.927 | -1.72
- COc1cc2c(c(OC)c1)C(c1ccc(-c3ccccc3)cc1)CC(=O)N2 (centres undefined)
    0.912 | -1.12
- CCCNC(=O)CC1Oc2ccccc2NC1=O (centres undefined)
    0.962 | -0.489
- Cc1ccc(OCCn2c(CO)nc3ccccc32)cc1
    1.03 | 1.17
- Cc1ccccc1OCc1nc2ccccc2n1Cc1ccccc1
    1.02 | 0.851
- COC(=O)c1nn2c(C(F)(F)F)cc(-c3ccc(OC)cc3)nc2c1Cl
    1.07 | 0.448
- O=C(Cc1c(C(=O)O)[nH]c2ccccc12)NCCCN1CCN(c2ccccc2F)CC1
    0.931 | -0.907
- CCN1CCN(C(=O)CCc2nc(-c3ccc(C)cc3)no2)CC1
    1.08 | 0.781
- COc1cc(Cl)c(C)cc1NC(=O)c1ccc2c(c1)NC(=O)c1ccccc1S2
    1.04 | 0.258
- CCN(CCNC(=O)CN1N=C(c2ccc(Cl)cc2)CCC1=O)c1ccccc1
    0.704 | -4.59
- Cc1cccc(NC(=O)c2cccc(COc3ccc4ccccc4c3)c2)n1
    1.16 | 4.02
- CC1CCN(c2c(NCc3ccc(C(=O)Nc4ccc(Cl)cc4)cc3)c(=O)c2=O)CC1
    0.964 | -0.208
- Cc1ccc(OCC(O)CN2C(C)CCCC2C)c(C)c1 (centres undefined)
    1 | -0.00702

The results go on:
The line under a structure holds: CBX7 AlphaScr | CBX7 AlphaScr z-score
- CCOc1cc(-c2nc(-c3cccnc3)no2)cc(OCC)c1OCC
    0.967 | -0.643
- CC(=O)Nc1cccc(NC(=O)Cn2cnc3c(nnn3Cc3ccccc3F)c2=O)c1
    0.988 | -0.231
- NS(=O)(=O)c1ccc2nc(NC(=O)c3ccc(S(=O)(=O)N4CCOCC4)cc3)sc2c1
    1.07 | 1.22
- Cc1ccc(NC(=O)CSc2nc3c(c(=O)[nH]2)CCC3)cc1C
    1 | -0.00866
- Cc1ccc(C)c(CN2C(=O)CSc3ccc(C(=O)NC4CCCCCCC4)cc32)c1
    0.966 | -0.731
- CCOc1ccc(N2C(=O)c3ccccc3C2Nc2cc(OC)ccc2OC)cc1 (centres undefined)
    0.787 | -7.16
- COc1ccc(C(=O)N2CCN(c3nc(-c4ccccc4)c4c(c3C#N)CCCC4)CC2)cc1
    0.845 | -0.184
- Cc1cccc(CCNC(=O)C(Cc2ccccc2)NS(=O)(=O)c2ccc3c(c2)CCC(=O)N3)c1 (centres undefined)
    0.919 | -1.52
- CCN1CCN(C(=O)c2oc3ccc(S(=O)(=O)N4CCCCC4)cc3c2C)CC1
    0.94 | -0.831
- COc1ccc(-c2nnc(SCC(=O)O)n2C)cc1
    1.06 | 1.71
- Nc1nonc1-c1noc(-c2ccccc2Br)n1
    1.04 | 1.07
- Cc1ccc(OCC(=O)Nc2cccc(-c3nc4ncccc4o3)c2)cc1
    1.02 | 0.227
- COc1ccccc1NC(=O)CN(C)S(=O)(=O)c1cccc2cccnc12
    1.04 | 0.795
- Cc1nc(N2CCC(C)CC2)c2c(C)c(C(=O)NC3CCCC(C)C3C)sc2n1 (centres undefined)
    1.02 | 0.326
- Fc1ccc(N2CCN(c3nc4ccccc4nc3C(F)(F)F)CC2)cc1
    1.08 | 2.4
- Cc1ccc(-c2nn(CC(=O)NC3CCCC3)c(=O)c3ccccc23)cc1
    1.01 | 0.0903
- CC1CCN(S(=O)(=O)c2ccc3c(c2)N(CC(=O)NC2CCCC(C)C2C)C(=O)CS3)CC1 (centres undefined)
    0.85 | -0.177

Some of the compounds tested; count on the stated rates, not on these rows.
